NPSR antag: neuropeptide S receptor (human) antagonism, cAMP | Q6W5P4 | CHO-NPSR cells, cAMP TR-FRET, antagonist mode | Potency, µM (highest dose often 38.3 µM), for inactives: at the top dose activity change, negative = inhibition, actives largely listed as inhibitors | 220,000 compounds, 1% hits; also: % is scaled to controls: 0 for no effect and ±100 for the full control effect; nearly all actives have a fitted effect of over 50% in size; many of its hits are not listed in these tables
Target sequence (Q6W5P4 whole entry, looked up): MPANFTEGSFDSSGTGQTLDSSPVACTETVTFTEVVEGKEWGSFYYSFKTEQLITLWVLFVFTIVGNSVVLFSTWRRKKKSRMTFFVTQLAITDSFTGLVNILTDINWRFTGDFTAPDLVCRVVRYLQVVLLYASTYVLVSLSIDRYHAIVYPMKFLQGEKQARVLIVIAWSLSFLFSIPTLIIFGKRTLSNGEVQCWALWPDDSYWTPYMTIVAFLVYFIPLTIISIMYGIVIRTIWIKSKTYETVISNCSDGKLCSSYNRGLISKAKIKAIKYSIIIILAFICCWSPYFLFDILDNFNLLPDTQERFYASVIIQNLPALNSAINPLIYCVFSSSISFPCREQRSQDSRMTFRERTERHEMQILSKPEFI
aGal spleen mod: alpha-galactosidase A (human) modulation; human spleen homogenate, 4MU-alpha-Gal fluorescence, 40 min; Potency, µM (highest dose often 80 µM), for the others: at the top dose activity change, negative = inhibition, most hits filed as inhibitors; 240,000 compounds, 0.008% hits; AID 2107;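 also: 0% = enzyme with vehicle and -100% = no enzyme basal signal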
Target sequence (P06280 32-429 limits assumed): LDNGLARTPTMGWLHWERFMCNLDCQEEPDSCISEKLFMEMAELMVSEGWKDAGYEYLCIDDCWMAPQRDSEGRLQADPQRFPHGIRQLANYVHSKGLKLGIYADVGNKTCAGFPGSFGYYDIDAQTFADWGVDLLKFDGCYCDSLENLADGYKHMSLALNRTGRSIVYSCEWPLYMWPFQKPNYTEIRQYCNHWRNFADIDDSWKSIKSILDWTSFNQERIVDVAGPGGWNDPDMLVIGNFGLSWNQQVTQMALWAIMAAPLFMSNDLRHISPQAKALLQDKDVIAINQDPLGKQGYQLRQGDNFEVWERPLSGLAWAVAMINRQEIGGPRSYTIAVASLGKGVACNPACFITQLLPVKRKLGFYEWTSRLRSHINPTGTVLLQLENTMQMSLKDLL
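Spleen homogenate 1 ug + cpd (titration) + 4-MU-alpha-D-galactopyranoside 1 mM; 37C 40 min; 50 mM citrate/phosphate pH 5.0, 0.01% Tween-20; stop pH 10; fluorescence 365/440; AC50 via Hill.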
GAA inh: blocks human lysosomal alpha-glucosidase. P10253. 200,000 compounds, 0.005% hits. purified human GAA, 4-MU-alpha-glucoside fluorescence. AID 1466. Potency, µM (doses to about 76.9 µM), inactives show at the top dose activity change, negative = inhibition, actives largely listed as inhibitors;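 also: plate controls were uninhibited enzyme wells for no effect and no-enzyme background for full effect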
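Enzyme (4 nM final) mixed with compound (up to 77 uM), then 4-MU-alpha-D-pyranoside (400 uM final) added; 20 min at room temperature, pH 5.0. Reaction stopped at pH 10, fluorescence read, AC50 derived by Hill fit.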
aGlu spleen mod: lysosomal alpha-glucosidase (human) modulation. P10253. human spleen homogenate, 4-MU-alpha-glucoside fluorescence. Potency, µM (series often up to 79.9 µM), for inactives: at the top dose activity change, negative = inhibition, usual class: inhibitors. 240,000 compounds, 0.006% hits. AID 2112;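 also: 0% = enzyme with vehicle and -100% = no enzyme basal signal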
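Human spleen homogenate (1 ug) incubated with compounds and 1 mM 4-methylumbelliferyl-alpha-D-glucopyranoside in pH 5.0 citrate/phosphate buffer, 37 C, 40 min. Stopped at pH 10; 4-MU fluorescence (Ex 365/Em 440 nm); AC50 by Hill fit.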
Epigenetic reg: epigenetic control regulation, reporter derepression. murine LDR cells, GFP reporter derepression, 30 h. Potency, µM (top dose mostly 53.9 µM), for inactives: at the top dose GFP activation, hits mostly activators. 280,000 compounds, 0.2% hits. AID 1865; also: % of control where 0% means no effect; nearly all actives have a fitted effect of over 60% in size
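Derepression of a silenced CMV-GFP reporter in murine LDR cells is scored by enumerating GFP-positive cells with a laser-scanning microplate cytometer after 30 hours of treatment at 37 C.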
GAA glycogen mod: inhibitors or activators of human alpha-glucosidase glycogen cleavage | P10253 | 300,000 compounds, 0.38% hits | AID 2100 | Potency, µM (doses to about 76.4 µM), for inactives: at the top dose activity change, negative = inhibition, most hits filed as inhibitors | recombinant GAA, glycogen substrate, Amplex Red glucose oxidase fluorescence;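 also: 0% = full enzyme reaction and -100% = no-enzyme basal signal; the screen sought inhibitors and activators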
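qHTS, 1536-well; enzyme 4 nM final; cpd up to 77 uM; substrate bovine liver glycogen 30 ug; 50 mM citrate/phosphate pH 5.0, 0.01% Tween-20; 37 C, 40 min; Amplex Red detection 45 min RT; Hill fit → AC50.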
Tau fluor counter: counter-screen for tau fibril formation inhibitors. tau K18 P301L (four-repeat tau fragment) Alexa594 fluorescence, heparin fibrillization. Potency, µM (top dose mostly 57.7 µM), for inactives: top-dose activity change, negative = decrease. 280,000 compounds, 0.93% hits; also: % is scaled to controls: 0 for no effect and ±100 for the full control effect; nearly all actives have a fitted effect of over 55% in size
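Human K18 P301L tau (15 uM unlabeled plus 0.24 uM Alexa 594-labeled, final) in 100 mM sodium acetate pH 7 was mixed with compound and 20 uM heparin and incubated 6 hr at 37 C.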
* marks the source's active call; other numbers are inactive results; ? = inconclusive; . = no result given; [ ] = remark or other dose. Calls follow the shape of the dose curve; as a rule, active = well fitted curve in the direction sought with a large enough effect; inconclusive = small, poorly fitted or top-dose-only effect, or another doubt; inactive = no such curve, though single readings can be large; an effect the other way counts as inactive or inconclusive. Potency is read from the fitted curve at half-maximal effect. An excerpt; count on the stated rates, not on these rows.

SMILES	NPSR antag	aGal spleen mod	GAA inh	aGlu spleen mod	Epigenetic reg	GAA glycogen mod	Tau fluor counter
CCc1ccc(-n2c(SCC(=O)Nc3ccc(C(=O)O)cc3)nnc2-c2ccncc2)cc1	-11.4%	2.9%	-1.2%	-4.4%	1.1%	-8.9%	-1.0%
CSc1nc2nc(-c3ccc(F)cc3)c(CCN3CCN(C)CC3)cn2n1	-15.5%	-1.4%	2.4%	1.5%	1.5%	-2.1%	-7.5%
O=C(NCCN1CCOCC1)c1cc(-c2ccc(Br)cc2)on1	10.9%[46.1 µM]	-23.7%	-6.7%	-4.8%	-3.2%	-4.5%	-8.6%
Clc1ccccc1-c1ccc2ncnc(NCc3cccnc3)c2c1	.	16.9%	.	12.9%	.	.	.
COC(C)(C)c1cc(C(C)(C)C)nc(N)n1	-2.3%[46.1 µM]	4.6%	-9.9%	-2.6%	2.2%	5.9%	0.4%
CN1CCN(C(=O)/C=C/c2cn(-c3ccccc3)nc2-c2ccc3c(c2)OCCO3)CC1	-34.9%	-10.7%	3.4%	-8.3%	-0.2%	7.1%	-26.2%
CCC(=O)c1ccc(OCC(=O)N2CCc3cc(OC)c(OC)cc3C2)cc1	-8.2%[46.1 µM]	3.9%	-10.6%	9.5%	-0.8%	1.4%	-0.1%
CCc1c(O)nc(SCC(=O)N2CCCCC2)n(-c2ccccc2C)c1=O	2.0%[46.1 µM]	8.4%	1.9%	5.4%	1.5%	6.8%	0.1%
O=c1n(-c2ccccc2)c(=O)n(Cc2ccccn2)n1Cc1ccccn1	7.5%[46.1 µM]	-6.2%	0.8%	4.5%	-1.1%	5.0%	1.5%
CC(C(=O)Nc1ccc(C#N)cc1)N(C)CC(=O)Nc1cccc(F)c1 (configuration not stated)	-21.2%	-24.0%	-4.5%	-10.4%	17.0%	0.2%	-9.0%
O=C1COc2ccc(S(=O)(=O)Nc3ccc4c(c3)OCO4)cc2N1	-0.1%	-4.4%	-25.1%	.	-0.1%	-6.2%	-1.0%
Cc1cc(NC(=O)NC(=O)c2ccc(F)cc2F)n[nH]1	-5.2%[46.1 µM]	-12.7%	3.1%	-10.8%	-1.3%	-1.5%	-3.1%
C#CCNC(=O)C1=C[C@@H](c2csc3ccccc23)[C@H](CCCO)[C@@H](OCC)O1	5.4%	9.7%	.	9.7%	1.5%	-11.3%	-4.1%
CCNC(=O)C1CC(=O)N(CC)C(=Nc2cc(Cl)c(O)c(Cl)c2)S1 (configuration not stated)	-12.3%[46.1 µM]	2.9%	-1.4%	1.7%	0.8%	-12.7%	8.8%
CCCn1c(N)c(C(=O)CN2CCN(S(=O)(=O)c3cccs3)CC2)c(=O)[nH]c1=O	2.6%[46.1 µM]	4.9%	-2.1%	1.6%	-1.1%	-4.3%	-10.4%
CC(C)N(C(=O)COC(=O)c1ccc(Cl)c(S(N)(=O)=O)c1)C(C)C	5.9%	-6.1%	-8.7%	-8.7%	-0.2%	-3.7%	2.6%
CCN(CC)CCNC(=O)C1CCCCN1S(=O)(=O)c1cccc([N+](=O)[O-])c1 (configuration not stated)	-15.2%	-16.2%	-4.8%	-4.9%	-1.1%	6.6%	-5.0%
Cc1cccc(N/C=C/C(=O)c2cccs2)c1C	-11.4%	-10.8%	-7.3%	-8.1%	-1.0%	6.5%	-24.4%
CCOC(=O)c1sc(NN=C(C(=O)OC)C(=O)OC)c(C(=O)OCC)c1C	-25.4%[46.1 µM]	-5.7%	-5.9%	-4.5%	0.0%	8.8%	3.2%
CC1CCCCN1S(=O)(=O)c1ccc(NC(=O)c2cccs2)cc1 (configuration not stated)	1.3%[46.1 µM]	-4.2%	-3.8%	-2.4%	2.9%	-2.0%	?
COC(=O)c1ccc(Cl)c(NC(=O)CN(c2ccc3c(c2)OCO3)S(C)(=O)=O)c1	-16.6%[46.1 µM]	8.1%	?	1.9%	-1.1%	1.1%	-9.8%
Cc1cc(C)nc(N2CCCC(C(=O)Nc3ccc4c(c3)OCCO4)C2)n1 (configuration not stated)	-7.9%[46.1 µM]	4.5%	-1.0%	-3.2%	0.0%	-1.3%	-5.1%
COc1cc(/C=C2\N=C(c3ccccc3)OC2=O)ccc1OCc1c(C)no[n+]1[O-]	-3.0%[46.1 µM]	7.4%	-12.1%	9.2%	0.0%	2.3%	3.6%
CCN1CCN(C(c2cccs2)C(C)NC(=O)C(C)C)CC1 (configuration not stated)	4.2%[46.1 µM]	1.4%	-1.2%	8.4%	-1.0%	4.1%	8.9%

An excerpt of these results, in markdown:
| structure | NPSR antag | aGal spleen mod | GAA inh | aGlu spleen mod | Epigenetic reg | GAA glycogen mod | Tau fluor counter |
| --- | --- | --- | --- | --- | --- | --- | --- |
| CC1CCCCN1S(=O)(=O)c1ccc(NC(=O)c2cccs2)cc1 (configuration not stated) | 1.3%[46.1 µM] | -4.2% | -3.8% | -2.4% | 2.9% | -2.0% | ? |
| CCOC(=O)c1sc(NN=C(C(=O)OC)C(=O)OC)c(C(=O)OCC)c1C | -25.4%[46.1 µM] | -5.7% | -5.9% | -4.5% | 0.0% | 8.8% | 3.2% |
| COC(=O)c1ccc(Cl)c(NC(=O)CN(c2ccc3c(c2)OCO3)S(C)(=O)=O)c1 | -16.6%[46.1 µM] | 8.1% | ? | 1.9% | -1.1% | 1.1% | -9.8% |
| Cc1cc(C)nc(N2CCCC(C(=O)Nc3ccc4c(c3)OCCO4)C2)n1 (configuration not stated) | -7.9%[46.1 µM] | 4.5% | -1.0% | -3.2% | 0.0% | -1.3% | -5.1% |

(listing goes on)
SMILES	NPSR antag	aGal spleen mod	GAA inh	aGlu spleen mod	Epigenetic reg	GAA glycogen mod	Tau fluor counter
Cc1cccc(NC(=S)NCC(c2cccnc2)N(C)C)c1 (configuration not stated)	18.6%	3.0%	4.1%	-1.5%	0.0%	-0.6%	-7.1%
CCOC(=O)c1ccc(-n2c(CCC(=O)O)ccc2-c2cccs2)cc1	-42.8%	21.8%	-8.1%	-7.0%	-0.1%	-1.5%	-15.6%
Cc1cc(C)c(NC(=O)CCCOC(=O)C2=COCCO2)c(C)c1	1.8%[7.67 µM]	-2.3%	-11.6%	-2.9%	0.0%	1.0%	-7.7%
Cc1[nH]c2ccccc2c1C(=O)/C=C/c1ccccc1Cl	-31.1%	2.0%	-4.1%	-2.5%	4.4%	-2.1%	?
COc1ccc(C2=NOC3(CC(=O)N(c4ccc(C)cc4)C3=O)C2)c(OC)c1 (configuration not stated)	-3.5%[46.1 µM]	2.8%	2.4%	-1.5%	0.7%	-9.2%	-2.6%
O=C(CCn1[nH]c(=O)c2ccccc2c1=O)NCCO	-19.3%[46.1 µM]	11.4%	3.7%	14.4%	-0.7%	6.6%	-5.7%
O=C(C1=C[C@H](C2CCCCC2)C[C@H](OCCCCO)O1)N1CCN(Cc2ccc3c(c2)OCO3)CC1	?	-11.6%	.	3.8%	-1.3%	-7.2%	1.8%
O=C(c1cnn2c(C(F)F)cc(-c3ccccc3)nc12)N1CCSCC1	-8.7%[46.1 µM]	3.3%	-2.3%	-0.5%	0.0%	-4.5%	-1.8%
Cc1ccc(OCC(=O)Nc2ccc3c4c(cccc24)CC3)c(C)c1	-42.3%	2.1%	3.9%	4.4%	5.1%	0.6%	2.2%
CCCCCC(=O)NNC(=O)c1c(O)c2ccccc2n(CC)c1=O	9.7%	-2.3%	-5.6%	-9.7%	-0.1%	-9.3%	-59.9%
COc1ccccc1N1CCN(C(=O)C2CCN(S(=O)(=O)c3ccc(Cl)cc3)CC2)CC1	-20.7%[46.1 µM]	10.7%	1.2%	1.3%	0.0%	0.9%	-12.8%
CC(C)c1nnc(SCC(=O)N2CCOCC2)n1C	-0.7%[46.1 µM]	0.6%	-4.4%	-4.0%	0.0%	6.6%	0.1%
COC(=O)C(NC(=O)CNS(=O)(=O)c1ccc(Br)cc1)c1ccccc1 (configuration not stated)	2.1%	7.0%	-3.5%	3.4%	-0.1%	5.6%	5.2%
O=C(c1ccc2snnc2c1)N1CCSCC1	-8.1%[46.1 µM]	-5.5%	-3.0%	1.3%	0.0%	10.0%	0.2%
COc1ccc(-c2cn3cccnc3n2)cc1NC(=O)C1CC1	-5.6%[46.1 µM]	0.3%	-0.1%	-3.0%	-1.2%	2.8%	1.1%
COc1cccc(C(=O)NCC(=O)N/N=C/c2cccc(OC(=O)c3ccc([N+](=O)[O-])cc3)c2)c1	12.4%	3.6%	-8.8%	-4.2%	-1.0%	-1.0%	-26.2%
CC(C)NC(=O)NC(=O)CSc1ncccn1	19.0%	-4.1%	-5.7%	-12.0%	-4.0%	2.2%	-1.8%
O=C1c2ccccc2C(=O)N1CCSc1ccccc1	-8.6%[46.1 µM]	-4.1%	-1.8%	-8.3%	-3.1%	-8.0%	-18.7%
Cc1c(CN(C)C)c2c(n1C)C(=O)c1ccc(Br)cc1-2	?	-13.5%	-6.9%	-9.6%	-1.0%	-4.9%	-6.5%
Cc1ccccc1Nc1nc(N)nc(COC(=O)c2cccc(S(=O)(=O)N(C)c3ccccc3)c2)n1	1.1%	2.2%	-12.4%	2.1%	-1.0%	11.6%	-28.2%
COCCn1c(C)cc(C(=O)CSc2nc(C)c(C)c(C)n2)c1C	5.9%	19.5%	-2.2%	0.2%	1.4%	4.2%	-13.9%
O=C(CSc1ncn[nH]1)Nc1ccc2c(c1)OCCO2	-7.1%[46.1 µM]	6.6%	-1.8%	-3.1%	-2.8%	-13.7%	-12.7%
CCOc1ccc(C(=O)NC2CC3CCCC(C2)N3CC(C)C)cc1 (configuration not stated)	4.5%	8.1%	-2.3%	2.6%	-0.4%	-10.4%	2.5%
O=C(CNC(=O)c1ccc(F)cc1)N/N=C/c1cn[nH]c1-c1ccccc1	11.9%	5.7%	3.5%	10.0%	0.0%	2.9%	-14.3%
O=C(O)c1ccc(N=Nc2c(O)[nH]c3ccccc23)cc1	?	?	?	3.2%	2.2%	-1.6%	-10.1%
O=C(O)CCNC(=O)c1cncc(Br)c1	2.9%[46.1 µM]	-7.9%	-2.1%	-1.3%	-3.0%	0.8%	-7.5%
Cc1cccc(NC(=O)CN2C(=O)N/C(=C/c3ccc(C)s3)C2=O)c1	-3.6%	-11.5%	-0.1%	-10.0%	?	5.2%	-19.5%
CC(C)CNS(=O)(=O)c1ccc(CCC(=O)Nc2ccc3c(c2)OCCO3)cc1	-8.6%[46.1 µM]	3.7%	-1.1%	-11.5%	-1.1%	-0.4%	-22.3%
Cc1ccc(NC2=NCC(=O)N2c2ccc3c(c2)OCCO3)c(C)c1	-3.1%[46.1 µM]	-0.1%	-7.1%	-1.4%	0.0%	-4.7%	1.3%
O=C(O)c1ccccc1-c1ccccc1C(=O)Nc1cccc(O)c1	2.2%	-10.9%	14.8%	-7.8%	2.3%	4.1%	-8.5%
O=C1N/C(=C/c2ccco2)C(=O)N1Cc1ccccc1F	-8.3%	3.4%	-8.8%	-4.2%	-3.2%	4.1%	-20.4%
COC(=O)c1c(N(S(C)(=O)=O)S(C)(=O)=O)sc2c1CCN(c1ncc(C(F)(F)F)cc1Cl)C2	-18.3%[46.1 µM]	2.4%	-15.8%	-2.6%	-2.2%	-7.6%	-21.7%
